Assay outcomes deposited in PubChem by ICCB-Longwood Screening Facility, Harvard Medical School.
GIV Gai3 FP = GIV-Galpha-i interaction inhibition. 0.42% of 210,000 active. Galpha-i3/FITC-GIV peptide fluorescence polarization, 90 min; hits give low values; scaled: aluminum fluoride 0%, vehicle 100%. percent of control (FP), % (concentration not given with the values). AID 1224905. P08753;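 active means replicate mean at 85% of control or lower, very high polarization wells dropped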;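 further: wells of about 15 µL received 100 nL stock; the first replicate is given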
Target sequence (P08753 whole entry, looked up): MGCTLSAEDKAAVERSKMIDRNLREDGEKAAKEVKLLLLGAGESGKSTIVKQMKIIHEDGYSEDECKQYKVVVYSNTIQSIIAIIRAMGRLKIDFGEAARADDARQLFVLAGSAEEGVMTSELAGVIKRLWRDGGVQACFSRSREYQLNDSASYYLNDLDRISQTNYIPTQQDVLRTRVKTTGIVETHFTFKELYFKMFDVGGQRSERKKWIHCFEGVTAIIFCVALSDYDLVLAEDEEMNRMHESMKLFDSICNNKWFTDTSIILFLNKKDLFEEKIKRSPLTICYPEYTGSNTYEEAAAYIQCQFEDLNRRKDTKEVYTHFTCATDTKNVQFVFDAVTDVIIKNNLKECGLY
Sa growth 42C = S. aureus growth inhibition; 0.53% of 170,000 active; relative growth, % (concentration not given with the values); S. aureus RN4220 growth, OD600, 20 h, 42 °C; hits give low values;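 active means growth at 42 °C up to 50% and 20 or more points under that at 30 °C, or under 10% at both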;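 further: 300 nL library stock went into each well; scaled to the means of positive and negative controls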
HCMV UL50-53 inh = inhibitors of HCMV UL50-UL53 nuclear egress complex interaction; HTRF UL50-UL53 interaction, normalized percent inhibition; inhibition, % (no concentration beside the values); 0.15% of 190,000 active;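 active means both replicates at 50% or more, plus weaker picks with an unusually low signal ratio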;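 further: stock transfer was 100 nL into about 20 µL; 0% = negative control wells and 100% = wells with untagged competitor protein; inactives centre near -12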
Sa growth 42C second temp = recorded beside Sa growth 42C, whose call it bears; relative growth, %; measured here: growth at 30 °C;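 optical density after 20 h as mean of two plates; 100% = untreated growth and lower means inhibition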
* hit, by the source's call; . = no result given; & = joins results of further samples.

Abbreviations – A = GIV Gai3 FP; B = Sa growth 42C; C = Sa growth 42C second temp; D = HCMV UL50-53 inh
Molecule: O=C(OCc1ccc(-c2ccc(Br)cc2)o1)c1ccc2c(c1)OCCO2
  A = 109; B = .; C = .; D = -15
Molecule: CCN(CC)c1ccc2cc(-c3nc(-c4cc(OC)c(OC)c(OC)c4)no3)c(=O)oc2c1
  A = -21*; B = 89; C = 81; D = .
Molecule: COc1ccc(C(=O)/C=C/Nc2ccc(S(=O)(=O)Nc3cnc4ccccc4n3)cc2)cc1
  A = 115; B = 52; C = 63; D = .
Molecule: CC1=C(C(=O)N2CCN(Cc3ccccc3)CC2)C2(CCCCC2)OC1=O
  A = 100; B = 85; C = 93; D = -8
Molecule: COc1ccc(Br)cc1CNC(=O)C1CCCN(S(C)(=O)=O)C1 (stereo not drawn)
  A = 102; B = 119; C = 85; D = .
Molecule: COc1cc(SC)ccc1C(=O)Nc1ccc(S(=O)(=O)N(C)C)cc1
  A = .; B = 102; C = 101; D = -10
Molecule: COc1cc(-c2cn[nH]c2N)cc(OC)c1OC
  A = 100; B = 96; C = 91; D = -4
Molecule: O=C(OCc1cc(=O)n2ccsc2n1)c1ccccc1NCCO
  A = .; B = 78; C = 97; D = -32
Molecule: O=C(CCc1nc(-c2ccncc2)no1)NC1CCCCC1
  A = 104; B = .; C = .; D = -8
Molecule: Cc1ccc(C(=O)Nc2ccc(F)cc2)cc1S(=O)(=O)N1CCCCCC1
  A = 105; B = 95; C = 88; D = 3
Molecule: CCOC(=O)c1c(/N=c2\oc3cc(O)ccc3cc2C(N)=O)sc2c1CCCC2
  A = 124; B = .; C = .; D = -12
Molecule: CCC(CC)C(=O)NCc1csc(-c2ccc(OC)cc2)n1
  A = 102; B = .; C = .; D = -29
Molecule: CN(C)CCC=C1c2ccccc2CCc2ccccc21
  A = 105; B = 82; C = 78; D = -12&-7&2&-62&-23
Molecule: Cc1ccc2[nH]c3c(c2c1)CCCC3Nc1ccc(Cl)cc1 (stereo not drawn)
  A = 97; B = 92; C = 97; D = .
Molecule: C=CCn1c(SCC(=O)Nc2ccc(Cl)cc2)nc2sc(CC)cc2c1=O
  A = 102&101; B = .; C = .; D = -20
Molecule: CCS(=O)(=O)N1CCc2cc(C(=O)NCCc3ccc(OC)cc3)ccc21
  A = 110; B = 97; C = 101; D = 5
Molecule: O=C(CSc1nc2c([nH]c3ccccc32)c(=O)n1-c1ccc(Cl)cc1)N1CCCC1
  A = 98; B = 112; C = 86; D = .
Molecule: O=C(NC1CCCC1)c1ccc2c(=O)n(Cc3ccccc3)c(SCc3cccc([N+](=O)[O-])c3)nc2c1
  A = 105; B = 112; C = 99; D = .
Molecule: O=C(NCc1ccccc1)c1cccnc1NCc1ccccc1
  A = 104; B = 120; C = 100; D = -3
Molecule: CCOC(=O)CCCn1c(C)nc(=O)c(-c2ccccc2)c1C
  A = .; B = 87; C = 90; D = -15
Molecule: COc1ccccc1-n1c(=O)c2c3c(sc2n(C)c1=O)CN(C(C)=O)CC3
  A = 104; B = 103; C = 93; D = .
Molecule: CN1C(=O)NC(c2ccc(O)cc2)C2=C1CN(CCO)C2=O (stereo not drawn)
  A = .; B = 111; C = 89; D = -3
Molecule: CCOC(=O)c1c(CNC(C)C)oc2ccc(OC)cc12
  A = .; B = 94; C = 89; D = 6
Molecule: CC(CO)NC(=O)OCC1c2ccccc2-c2ccccc21 (stereo not drawn)
  A = 102; B = 115; C = 102; D = -1
Molecule: NNC(=O)c1ccccc1OCc1ccc(Cl)cc1
  A = .; B = 91; C = 69; D = -24
Molecule: CN(C)N=Nc1ccc(Oc2ccccc2)cc1
  A = 107; B = 127; C = 102; D = 3
Molecule: CCOc1ccc(CCNC(=O)c2cc3sccc3n2CC)cc1OCC
  A = 102; B = 100; C = 94; D = 4
Molecule: COC1=C/C(=C/c2c(N)n3c(SC(C)C)nsc3nc2=O)C=CC1=O
  A = 387; B = 91; C = 30; D = .
Molecule: COC(=O)c1sc2cccc(F)c2c1S(=O)(=O)Nc1cc(C)c(Cl)cc1OC
  A = 101; B = 115; C = 82; D = .
Molecule: COc1ccc(C(=O)Nc2nnc(C3=COCCO3)o2)cc1
  A = 102; B = 81; C = 66; D = -30
Molecule: Cc1ccc(OC(C)C(=O)N2CC(=O)Nc3ccccc32)c(C)c1 (stereo not drawn)
  A = 104; B = 105; C = 75; D = .
Molecule: Cc1cccc(-c2cc(N3CCN(S(=O)(=O)c4ccccc4C)CC3)ncn2)c1
  A = 102; B = .; C = .; D = -18
Molecule: CCOc1cccc2sc(N(CCN(CC)CC)C(=O)c3ccco3)nc12
  A = 113; B = 92; C = 80; D = .
Molecule: Cc1cc(C)n(C(=O)CCN2C(=O)c3ccccc3C2=O)n1
  A = 104; B = .; C = .; D = -21
Molecule: CCOc1cccc(NC(=O)C2CC(=O)N(Cc3ccc4c(c3)OCO4)C(=Nc3ccc(OC)cc3)S2)c1 (stereo not drawn)
  A = 107; B = .; C = .; D = -5
Molecule: COCCCNC(=O)c1ccc(CSc2nc3cccnc3n2Cc2ccc(OC)cc2)cc1
  A = 105; B = 109; C = 86; D = .
Molecule: O=C(Nc1c(-c2ccccc2)nc2ccccn12)c1ccccc1F
  A = 103; B = 105; C = 95; D = 6
Molecule: CCOC(=O)c1c(C)oc2nc(C)nc(NCCCN3CCN(c4cc(C)ccc4C)CC3)c12
  A = 110; B = 116; C = 96; D = .
Molecule: O=c1[nH]c2ccccc2nc1/C=C(\O)c1cccc2ccccc12
  A = 132; B = 98; C = 79; D = .
Molecule: CC(=O)OCCc1c(C)nc2c(C(=O)Nc3ccccc3)c[nH]n2c1=O
  A = 105; B = .; C = .; D = -16
Molecule: CN(C)S(=O)(=O)c1ccc2c(c1)N(CC(=O)N1CCN(c3cccc(Cl)c3)CC1)CCS2
  A = 104; B = 100; C = 90; D = .
Molecule: O=C1c2ccccc2-c2nnc(-c3cccs3)cc21
  A = 103; B = 97; C = 62; D = -62
Molecule: CC1CCc2noc(NC(=O)c3ccc([N+](=O)[O-])cc3)c2C1 (stereo not drawn)
  A = 102; B = 94; C = 89; D = -40
Molecule: COc1ccc(NC(=O)c2oc3ccccc3c2NC(=O)c2cc(-c3ccccc3)on2)cc1
  A = 97; B = .; C = .; D = -19
Molecule: O=c1[nH]c2ccccc2s1
  A = 103&106; B = 109&112; C = 99&87; D = 1&1
Molecule: Cc1cccc2cc3c(nc12)N(S(=O)(=O)c1ccc(Cl)cc1)CC3
  A = 104; B = .; C = .; D = -22
Molecule: CC1N=C2c3ccccc3N=C(SC(C)C(=O)Nc3ccc4c(c3)OCCO4)N2C1=O (stereo not drawn)
  A = 103; B = .; C = .; D = -21
Molecule: CC1CCCC(C)N1CCCNC(=O)NCc1noc2ccccc12 (stereo not drawn)
  A = 103; B = 116; C = 88; D = .
Molecule: CCOC(=O)c1nc(Nc2cccc(C)c2)c2ccccc2n1
  A = 105; B = 91; C = 83; D = .
Molecule: Cc1cc(C)cc(NC(=O)C(CC(C)C)NC(=O)C2CCCCC2)c1 (stereo not drawn)
  A = 105; B = 97; C = 94; D = -34

Going on with the list.
Abbreviations – A = GIV Gai3 FP; B = Sa growth 42C; C = Sa growth 42C second temp; D = HCMV UL50-53 inh
Molecule: CCOC(=O)c1cc(-c2ccccc2)n(CC(=O)N2CCN(C3CCCCC3)CC2)c1C
  A = 104; B = 101; C = 89; D = -7
Molecule: CCOC(=O)c1ccccc1NC(=O)N1CCCN(S(=O)(=O)c2ccc3c(ccn3CC)c2)CC1
  A = 92; B = 90; C = 90; D = .
Molecule: Cc1[nH]nc(N)c1C1(O)C(=O)Nc2c(Cl)cc(Cl)cc21 (stereo not drawn)
  A = .; B = 90; C = 52; D = -23
Molecule: CC(=O)NC(=O)c1cc2cc(Br)ccc2oc1=Nc1ccccc1C
  A = 104; B = .; C = .; D = -20
Molecule: CCCOc1ccccc1O
  A = .; B = 81; C = 88; D = -8
Molecule: COc1ccc(-c2cc(-c3ccccc3)nc(SCC(N)=NC#N)c2C#N)cc1
  A = .; B = 87; C = 80; D = 12
Molecule: N#CC(C#N)=Cc1ccc(Oc2ccccc2)nc1
  A = 101; B = 87; C = 76; D = -26
Molecule: O=C(CN1C(=O)c2ccccc2C1=O)OCc1nc2ccccc2s1
  A = 102; B = 89; C = 85; D = -7
Molecule: COc1ccccc1NC(=O)CSc1nc2ccccc2o1
  A = 97; B = 99; C = 81; D = .
Molecule: CCOc1ccccc1C(=O)Nc1ccc(S(=O)(=O)Nc2nc(C)cc(C)n2)cc1
  A = 99; B = 83; C = 91; D = 2
Molecule: CN(C)S(=O)(=O)c1ccc(SCC(=O)Nc2ccc3c(c2)CCC3)nc1
  A = .; B = 116; C = 90; D = -29
Molecule: CCNC(=O)c1ccccc1-c1nc(-c2ccc(OC)c(OC)c2)no1
  A = 101; B = 88; C = 80; D = 4
Molecule: CCc1ccccc1Nc1nc(N)nc(CN2C(=O)NC3(CCCCCC3)C2=O)n1
  A = .; B = 77; C = 94; D = -28
Molecule: O=C(Cn1ncc2c(=O)oc3ccccc3c21)NC1CC1
  A = 88; B = .; C = .; D = 6
Molecule: O=C(c1cccn2c(=O)c3cc4ccccc4cc3nc12)N1CCN(Cc2ccc3c(c2)OCO3)CC1
  A = 128; B = 88; C = 83; D = -62
Molecule: COc1ccccc1CNC(=O)CCC1N=C2c3ccccc3N=C(SCc3ccc(C)cc3)N2C1=O (stereo not drawn)
  A = 107; B = 101; C = 109; D = .
Molecule: O=S(=O)(NCc1ccc(Cl)cc1)c1ccc(N2CCCCS2(=O)=O)cc1
  A = 105; B = 148; C = 95; D = .
Molecule: O=C(CNC(=O)c1ccc(Br)o1)Nc1ccc(Br)c(C(F)(F)F)c1
  A = .; B = 74; C = 88; D = -38
Molecule: Cc1cc(OCC(=O)Nc2c(C(=O)c3ccccc3)oc3ccccc23)cc(C)c1Cl
  A = 107; B = 93; C = 90; D = -16
Molecule: CC1CCN(C(=O)Cn2cc(C=C3C(=O)N(C)C(=O)N(C)C3=O)c3ccccc32)CC1
  A = 102; B = 97; C = 91; D = 4
Molecule: CC(=O)N1CCCc2cc(S(=O)(=O)N3CCCC(C(=O)N4CCN(c5ccccc5F)CC4)C3)ccc21 (stereo not drawn)
  A = 103; B = 83; C = 51; D = .
Molecule: CCc1nnsc1C(=O)Nc1c(C(=O)Nc2ccccc2)oc2ccccc12
  A = 104; B = 111; C = 88; D = -21
Molecule: COc1cc(NC(=O)C(CC(C)C)NS(=O)(=O)c2ccc3c(c2)oc(=O)n3C)c(C(=O)O)cc1OC (stereo not drawn)
  A = 100; B = 91; C = 103; D = 6
Molecule: Cc1ccc(-n2nnnc2-c2cnn(-c3ccccc3)c2C)cc1
  A = 107; B = 87; C = 89; D = -41
Molecule: CCC(C)NS(=O)(=O)c1ccc(F)c(OC)c1 (stereo not drawn)
  A = 111; B = 103; C = 107; D = 12
Molecule: CCOC(=O)c1cc2ccccc2nc1N
  A = 108; B = 103; C = 86; D = -39
Molecule: CCNc1nc(NCC)n2c(=S)[nH]nc2n1
  A = 102; B = 106; C = 99; D = -4
Molecule: CCOC(=O)N1CCC(n2c(SCc3ccc(F)cc3Cl)nc3ccsc3c2=O)CC1
  A = 99; B = 82; C = 86; D = .
Molecule: CCn1c(C)cc(/C=C2\C(=O)NC(=O)N(c3ccc(OC)cc3)C2=O)c1C
  A = 133; B = 117; C = 85; D = -36
Molecule: Cc1ccc(OCC(O)CNc2ccc(Br)c(C(F)(F)F)c2)cc1C (stereo not drawn)
  A = 108; B = 103; C = 85; D = -30

No new results follow: an excerpt of the list.
Abbreviations – A = GIV Gai3 FP; B = Sa growth 42C; C = Sa growth 42C second temp; D = HCMV UL50-53 inh
Molecule: CCNc1nc(NCC)n2c(=S)[nH]nc2n1
  A = 102; B = 106; C = 99; D = -4
Molecule: CCOC(=O)N1CCC(n2c(SCc3ccc(F)cc3Cl)nc3ccsc3c2=O)CC1
  A = 99; B = 82; C = 86; D = .
Molecule: CCn1c(C)cc(/C=C2\C(=O)NC(=O)N(c3ccc(OC)cc3)C2=O)c1C
  A = 133; B = 117; C = 85; D = -36

More structures.
Abbreviations – A = GIV Gai3 FP; B = Sa growth 42C; C = Sa growth 42C second temp; D = HCMV UL50-53 inh
Molecule: Cc1ccc(C(C)C)c(OCCn2c(CCNC(=O)c3ccco3)nc3ccccc32)c1
  A = 102; B = 77; C = 21; D = -6
Molecule: Cc1cc(NC(=O)C(C)Oc2ccccc2)no1 (stereo not drawn)
  A = 105; B = 83; C = 77; D = -14
Molecule: CS(=O)(=NS(=O)(=O)c1cc(S(=O)(=O)c2ccccc2)cs1)c1ccccc1 (stereo not drawn)
  A = 103; B = 100; C = 91; D = -12
Molecule: COc1cccc(NC(=O)C2c3ccccc3C(=O)N3CCc4ccccc4C23)c1 (stereo not drawn)
  A = 104; B = 86; C = 97; D = .
Molecule: COc1ccc(Br)cc1CNC(=O)CN1C(=O)CSc2ncccc21
  A = 96; B = .; C = .; D = -30

Printed as active in GIV Gai3 FP, of those listed so far:
| molecule | GIV Gai3 FP | Sa growth 42C second temp |
| --- | --- | --- |
| CCN(CC)c1ccc2cc(-c3nc(-c4cc(OC)c(OC)c(OC)c4)no3)c(=O)oc2c1 | -21* | 81 |

Record cards, as listed above.
Listed for COc1ccc(Br)cc1CNC(=O)CN1C(=O)CSc2ncccc21 : GIV Gai3 FP = 96; Sa growth 42C = .; Sa growth 42C second temp = .; HCMV UL50-53 inh = -30
Listed for COc1cccc(NC(=O)C2c3ccccc3C(=O)N3CCc4ccccc4C23)c1 (stereo not drawn) : GIV Gai3 FP = 104; Sa growth 42C = 86; Sa growth 42C second temp = 97; HCMV UL50-53 inh = .
